# Cruzain inh Det: inhibitors of Trypanosoma cruzi cruzain with detergent | P25779 | purified cruzain, Z-FR-AMC fluorescence, 0.01% Triton | Potency, µM, without a hit: max response, negative = inhibition, actives largely listed as inhibitors | 200,000 tested, 0.43% active | AID 1478;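 further: plate controls were neutral wells for no effect and buffer without enzyme for full effect; nearly all actives have a fitted effect of over 40% in size; top concentration of the series not given in the record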
# Target sequence (P25779 123-467 limits assumed): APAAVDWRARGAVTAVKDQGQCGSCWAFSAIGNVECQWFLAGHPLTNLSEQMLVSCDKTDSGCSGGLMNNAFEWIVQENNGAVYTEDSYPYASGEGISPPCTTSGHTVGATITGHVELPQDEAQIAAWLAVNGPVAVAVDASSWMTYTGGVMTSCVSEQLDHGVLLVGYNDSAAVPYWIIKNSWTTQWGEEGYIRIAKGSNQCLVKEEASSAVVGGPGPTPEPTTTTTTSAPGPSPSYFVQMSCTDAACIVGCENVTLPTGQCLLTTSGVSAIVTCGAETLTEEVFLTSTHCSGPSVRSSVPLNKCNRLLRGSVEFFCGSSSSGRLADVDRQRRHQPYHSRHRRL
#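 Steps: dispense cruzain (1.5 nM final) in acetate buffer pH 5.5 with DTT and 0.01% Triton X-100; pin-transfer compounds; incubate 15 min RT; add Z-FR-AMC (2 uM final); read fluorescence every 30 s, using the 60 s intensity change.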
# RE007 growth inh: less growth of the S. pombe RE007 Vpr strain; Potency, µM (top dose mostly 92.2 µM), inactives show at the top dose activity change, negative = less growth; S. pombe RE007 Vpr strain, BacTiter-Glo ATP luminescence, 24 h; control for the full effect not named in the record; 360,000 tested, 0.21% active; AID 651644; active = well fitted falling curve with a large enough effect; inconclusive = small, poorly fitted or top-dose-only effect; inactive = no such curve, though single readings can be large or run the other way;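 further: on the % scale 0 is the no-effect control and ±100 the full control effect; nearly all actives have a fitted effect of over 50% in size; the assay follows cell death caused by Vpr and the record does not say whether a fall means rescue or toxicity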
#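 Fission yeast RE007 carrying one integrated HIV-1 vpr copy, seeded at OD 0.01 in PMG+AL medium with 23 nL pinned compound. Grown 24 h at 30 degrees; viability read by BacTiter-Glo luminescence after 5 min.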
# NS1 inh: inhibitors of influenza NS1 protein function; S. cerevisiae slowed by influenza A NS1, growth recovery by OD600; Potency, µM (titrated, usually from 46.1 µM), inactives show at the highest dose activity, positive = more growth; 270,000 tested, 0.4% active; active means well fitted rising curve with a large enough effect; inconclusive means small, poorly fitted or top-dose-only effect; inactive means no such curve, though single readings can be large or run the other way; further: nearly all actives have a fitted effect of over 50% in size
#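 S. cerevisiae expressing influenza A NS1, grown in glucose, washed, then diluted 1:100 into pH 6.0 -URA galactose medium with 23 nl compound. Growth recovery read as OD600; NS1-free strain serves as control.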
# MARV entry inh: inhibitors of Marburg virus binding or cell entry. Potency, µM (highest dose often 37.8 µM), for inactives: top-dose activity change, negative = inhibition, most hits filed as inhibitors. Marburg virus pseudotyped entry inhibition, cell reporter; control for the full effect not named in the record; about a third of the inactives were read at about 46 µM. 300,000 tested, 1.8% active; active = well fitted inhibition curve with a large enough effect; inconclusive = small, poorly fitted or top-dose-only effect, or effect the other way; inactive = flat fitted curve, though single readings scatter; tested in HEK293 cells; about a fifth of its hits are not listed in these tables; further: on the % scale 0 is the no-effect control and ±100 the full control effect; luciferase read-out
# SARS PLpro yeast: SARS-CoV PLP inhibition in yeast. Potency, µM (series often up to 32.9 µM), inactives show top-dose activity, positive = growth rescue. S. cerevisiae expressing SARS-CoV PLpro, growth rescue; control for the full effect not named in the record. AID 485353. 330,000 tested, 0.19% active; active means well fitted rising curve with a large enough effect; inconclusive means small, poorly fitted or top-dose-only effect; inactive means no such curve, though single readings can be large or run the other way; further: 0% is about no effect; nearly all actives have a fitted effect of over 55% in size; growth read by luminescence after 48 h
# Cruzain inh noDet: cruzain (T. cruzi) inhibition without detergent; purified cruzain, Z-FR-AMC fluorescence, no detergent; Potency, µM, without a hit: max response, negative = inhibition, most hits filed as inhibitors; 200,000 tested, 2.3% active; AID 1476;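 further: plate controls were enzyme without inhibitor for no effect and buffer without enzyme for full effect; nearly all actives have a fitted effect of over 40% in size; top concentration of the series not given in the record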
#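 Detergent-free condition (0.00005% Triton X-100) in acetate buffer pH 5.5 with DTT. 1.5 nM enzyme and compound were pre-mixed 15 min, then 2 uM Z-FR-AMC substrate added; reaction progress from fluorescence change between first and third reads (60 s).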
# 2A StopGo: lowers the luciferase signal of an FMDV 2A StopGo reporter. human cells with a luciferase reporter of 2A StopGo recoding; control for the full effect not named in the record. Potency, µM (highest dose often 57.9 µM), for the others: top-dose signal change, negative = less light. 410,000 tested, 1.2% active. AID 1159524; active = well fitted falling curve with a large enough effect; inconclusive = small, poorly fitted or top-dose-only effect; inactive = no such curve, though single readings can be large or run the other way; tested in HEK293T cells; further: on the % scale 0 is the no-effect control and ±100 the full control effect; nearly all actives have a fitted effect of over 45% in size; luciferase light after 4 h
# Lassa entry inh: blocks Lassa virus binding to or entry into cells | Lassa virus pseudotype entry inhibition, cell reporter; control for the full effect not named in the record | Potency, µM (series often up to 37.9 µM), for inactives: at the top dose activity change, negative = inhibition, hits mostly inhibitors | 300,000 tested, 1.2% active; active means well fitted inhibition curve with a large enough effect; inconclusive means small, poorly fitted or top-dose-only effect, or effect the other way; inactive means flat fitted curve, though single readings scatter; tested in HEK293 cells; further: on the % scale 0 is the no-effect control and ±100 the full control effect; nearly all actives have a fitted effect of over 50% in size; luciferase read-out
# Numbers without * were called inactive; ? = inconclusive; / = no result given; [ ] = another dose, or the depositor's remark. Unless noted, the call rests on the fitted dose curve; in most records, active means well fitted curve in the direction sought with a large enough effect; inconclusive means small, poorly fitted or top-dose-only effect, or another doubt; inactive means no such curve, though single readings can be large; an effect the other way counts as inactive or inconclusive. Potency means the concentration at half of the fitted maximal effect. Outcome played no part in choosing rows (roughly 4.6% active in at least one column).
SMILES,Cruzain inh Det,RE007 growth inh,NS1 inh,MARV entry inh,SARS PLpro yeast,Cruzain inh noDet,2A StopGo,Lassa entry inh
CCn1nnc(-c2ccccc2NC(=O)c2ccc(-n3cnnn3)cc2)n1,-0.3%,8%,-2%,0%,-1%,7%,-3%,?
OC(C#CCN1CCCC1)(c1ccccc1)c1cccc(F)c1 (stereo not drawn),-0.7%,2%,13%,-15%,-12%,-7%,-25%,?
CNC(=O)C(=O)NCC1OCCN1S(=O)(=O)c1ccc(C)cc1 (stereo not drawn),/,1%,9%,2%,0%,/,-18%,-8%
CCCCCCCSc1nnc(-c2ccccc2N)c(=O)[nH]1,/,?,/,-18%[14.2 µM],-19%,/,-23%,/
NC(=O)c1snnc1-c1ccccc1,/,9%,1%,21%,1%,/,-6%,18%
O=C(N/N=C/c1ccc(OCC(=O)N2CCOCC2)cc1)c1ccccc1Cl,/,0%,1%,?,1%,/,15%,-11%
CCOc1ccc(NC(=O)CSc2ccccc2N)cc1,/,-20%,1%,3.5µM*,0%,/,73%[activator],/
O=C(Cn1ncc2c3ccccc3n(Cc3ccc(Cl)cc3)c2c1=O)NC1CCCCCC1,-3.1%,/,/,10%[46.1 µM],/,-4%,2%,12%[46.1 µM]
COc1cc(OC)c(NC(=O)C2CCN(C(=O)c3sc4nc[nH]c(=O)c4c3C)CC2)cc1Cl,4.0%,/,/,/,/,26%,-10%,?
CNC(=S)Nc1ccc(N2CCN(c3ccc(C(F)(F)F)cn3)CC2)nc1,/,9%,0%,14%[46.1 µM],-1%,/,-25%,0%[46.1 µM]
CCOc1ccc(N2C(=O)CC(Sc3nc(C)cc(C)n3)C2=O)cc1 (stereo not drawn),5.5%,-20%,-7%,4%,-6%,10%,/,11%
COc1ccc(CN(C)C(=O)c2ccc3ccccc3n2)cc1F,/,-19%,-1%,9%[46.1 µM],-1%,/,-5%,?
COc1ccc(CC(=O)N2CCN(C(=O)Cc3ccc(OC)cc3)CC2)cc1,-0.8%,17%,13%,-2%[46.1 µM],2%,20%,4%,-26%
CCCOc1ccc(CNC(=O)CCC(=O)n2ncc3cc(C)ccc32)cc1,/,-11%,10%,/,-9%,/,-22%,/
Cc1nn(-c2ccccc2)c(C)c1C(=O)NCCc1ccccc1,/,-6%,-4%,?,0%,/,2%,?
Cc1cccc(-c2noc(-c3ccc(N4CCCC4)c([N+](=O)[O-])c3)n2)c1,-5.7%,/,/,?,/,-3%,?,-6%[46.1 µM]
CCOCCCNC(=O)C1(O)c2cc(Br)ccc2NC(=O)N1c1ccc(C)c(C)c1 (stereo not drawn),/,-1%,5%,/,0%,/,-21%,/
Cc1nc2ccc(NC(=O)N(C(C)C)C(C)C)cc2s1,0.7%,-28%,-10%,2%,4%,3%,68%[activator],?
Cc1cccc(C(=O)N2CCN(S(=O)(=O)c3ccc4c(c3)OCCCO4)CC2)c1[N+](=O)[O-],/,1%,-22%,-3%,5%,/,?,14%
CCC(C)NS(=O)(=O)c1ccc(S(=O)(=O)N(CCc2ccc(OC)c(OC)c2)Cc2cccs2)cc1 (stereo not drawn),-3.7%,0%,20%,3.5µM*,0%,9%,-26%,?
Cc1cccnc1NC1(C(F)(F)F)N=C(c2ccccc2)NC1=O (stereo not drawn),2.3%,1%,-3%,-15%,0%,6%,12%,1%
O=C(O)c1ccc(CSCc2c(F)cccc2Cl)o1,0.2%,-8%,-5%,-3%,9%,-4%,9%,-15%
COc1ccc(-c2cn3cc(Cl)ccc3n2)cc1OC,-24%,-19%,-13%,?,3%,-22%,11%,7%
CSc1ncccc1C(=O)OCc1ccccc1,0.8%,-23%,-14%,4%,0%,2%,0%,?
Cc1cccn2c(=O)c(C(=O)N3CCN(c4ccc(Cl)cc4)CC3)cnc12,-9.0%,/,/,/,/,9%,-21%,?
CCOC(=O)CCc1c(C)nc2cc(C3CCCN(C(=O)OC(C)(C)C)C3)[nH]n2c1=O (stereo not drawn),1.7%,11%,-3%,-4%[46.1 µM],-8%,8%,-11%,-3%
COc1cscc1C(N)=O,/,3%,1%,/,1%,/,-5%,/
CCC(=O)C1=C(c2ccccc2)N(C(=O)CC)n2c(nnc2C2CCCCC2)S1,0.5%,/,/,/,/,1%,-7%,2%[46.1 µM]
Cc1ccc(-n2c(=O)c3c(n4cnnc24)-c2ccccc2CC32CCCCC2)cc1,-4.4%,-10%,21%,7%,12%,19%,-11%,-1%
NC(=O)C1CN(S(=O)(=O)c2ccc(Cl)cc2F)c2ccccc2O1 (stereo not drawn),/,-8%,10%,?,0%,/,5%,-26%[46.1 µM]
COc1ccc(N2CCN(CCCNC(=O)c3ccc(CS(=O)(=O)c4ccc(Cl)cc4)o3)CC2)cc1,/,-14%,-2%,/,5%,/,-20%,/
CCOC(=O)c1c(-c2ccccc2)csc1NC(=O)c1cc(S(=O)(=O)N2CCOCC2)ccc1C,-3.4%,-3%,10%,?,-9%,3%,?,-23%
CCOC(=O)Cc1c[nH]c2ccccc12,2.3%,-13%,-2%,15%,-18%,3%,-1%,-1%
Cc1cccc(OCC(=O)NCC(=O)N/N=C/c2ccc(N(C)C)cc2)c1,/,-9%,-6%,-1%,-1%,/,-3%,-14%
CCCS(=O)(=O)N1CCCC(C(=O)NCCCOCC)C1 (stereo not drawn),5.2%,-5%,2%,7%,-1%,-5%,11%,24%
Cc1ccc(N2C(=O)N(CC(=O)N3CCOCC3)C(=O)C2C)cc1 (stereo not drawn),/,-12%,/,?,0%,/,22%,?
COc1ccc(-c2noc(CNC(=O)COc3cccc(C)c3C)n2)cc1,-10%,/,/,1%[46.1 µM],/,9%,-16%,?
S=c1[nH]nc(-c2cc(-c3ccccc3)n[nH]2)n1/N=C/c1ccccc1,/,10%,11%,/,-1%,/,-11%,/
COc1c([N+](=O)[O-])c(=O)oc2ccccc12,-8.6%,1%,4%,5%,21%,-8%,-15%,17%
CCCN1CCC(=O)N([C@H](CO)CC(C)C)CC1,/,-17%,23%,/,-4%,/,-10%,/
Cc1ccc(CNC(=O)CN2C(=O)CSc3ccc(S(=O)(=O)N4CCCC4)cc32)cc1,-2.7%,/,/,/,/,-8%,1%,1%[46.1 µM]
CCN(CC)S(=O)(=O)c1cc(NC(=O)CNc2cccc(S(=O)(=O)N3CCCC3)c2)ccc1C,/,0%,/,?,2%,/,?,?
COc1cc(Cl)c(C)cc1NC(=O)CNC(=O)Cn1ccc2ccccc2c1=O,0.5%,/,/,-12%[46.1 µM],/,0%,5%,24%[46.1 µM]
CCc1nc2ccc(C(=O)Nc3ccc4c(c3)OCO4)cc2nc1CC,/,-10%,/,10%,-1%,/,49%[activator],-17%
O=C1Cc2ccccc2C(c2ccc(Cl)cc2)N1 (stereo not drawn),/,-2%,-2%,-8%,0%,/,-24%,?
CCN(C(=O)c1sc(N)c(C#N)c1C)C1CCCCC1,-3.8%,-1%,3%,-7%,24%,2%,-4%,-4%
CN(C)Cc1c(O)ccc2c1O/C(=C\C=C\c1ccccc1)C2=O,/,-6%,?,/,-2%,/,-18%,/
O=C(Cc1ccccc1)c1c[nH]c(C(=O)NC2CCCC2)c1,/,-1%,/,?,9%,/,-17%,-12%[46.1 µM]
COc1cccc2cc(-c3csc(NC(=O)CCC(=O)NCCCN4CCC(C)CC4)n3)c(=O)oc12,/,?,-4%,?,-3%,/,2%,?
Cc1ccc(-n2[nH]c(C)c(C=Nc3ccc(S(=O)(=O)N4CCOCC4)cc3)c2=O)c(C)c1,-6.2%,/,9%,7%,?,1%,/,/
Nc1nc(SCC(=O)N2CCOCC2)n[nH]1,/,-9%,6%,?,-1%,/,-4%,-1%
Cc1cc(C)c(NC(=O)Cn2nnc(-c3nc(-c4ccccc4)no3)c2N)c(C)c1,0.1%,/,/,/,/,3%,27%,-4%[46.1 µM]
COc1ccc(C2CC(=O)N3CN(c4ccc(C)c(Cl)c4)CSC3=C2C#N)cc1OC (stereo not drawn),-11%,7%,-69%,0%,-9%,0%,-13%,/
COc1ccc(/C=C/C(=O)N2CCCc3ccccc32)cc1,-3.7%,3%,-29%,7%,-37%,-2%,25%,?
COCCN(C(=O)COC(=O)Cc1coc2cc(C)ccc12)c1c(N)n(Cc2ccccc2)c(=O)[nH]c1=O,/,7%,/,16%,1%,/,-15%,-14%
COc1ccc2oc(=O)c(-c3cn4c(n3)sc3cc(F)ccc34)cc2c1,2.6%,/,/,/,/,9%,-8%,2%[46.1 µM]
COC(=O)c1ccccc1NC(=O)CSc1nc2ncccc2[nH]1,/,-5%,0%,-1%[46.1 µM],13%,/,-16%,24%[46.1 µM]
CCN(C(=O)c1ccc2c(=O)n3c(nc2c1)CCCCC3)c1cc(OC)ccc1OC,/,-5%,-7%,/,1%,/,15%,/
CCOC(=O)c1c(NC(=O)C2c3ccccc3Oc3ccccc32)sc(C(C)=O)c1C,-0.7%,-10%,2%,?,-5%,?,/,?
O=C(O)COc1ccccc1/C=N/NC(=O)c1cc(-c2ccccc2)nc2ccccc12,/,0%,9%,-5%,-1%,/,-8%,4%
# The listing continues:
SMILES,Cruzain inh Det,RE007 growth inh,NS1 inh,MARV entry inh,SARS PLpro yeast,Cruzain inh noDet,2A StopGo,Lassa entry inh
CC(c1ccon1)N(C)C(=O)c1ccc(OC2CCN(C(=O)C3CC3)CC2)cc1 (stereo not drawn),/,9%,3%,11%[46.1 µM],0%,/,11%,-2%
CCN(CC)Cc1c(C(=O)N/N=C/c2c(Cl)cccc2Cl)nnn1-c1nonc1N,/,-2%,4%,/,0%,/,44%,11%
O=C1C=CC(=O)C(CNc2ccc(C(=O)OCc3ccccc3)cc2)=C1,/,?,/,?,/,/,0%,11µM*
NC(=O)c1oc2ccccc2c1NC(=O)C1CC(=O)N(c2ccccc2)C1 (stereo not drawn),/,-8%,/,?,-1%,/,-8%,-1%
CC1(C)CC(NC(=O)C2CCN(S(=O)(=O)c3ccc(F)cc3)CC2)CC(C)(C)N1,/,5%,-7%,5%[46.1 µM],?,/,-11%,17%[46.1 µM]
CCCC(=O)Nc1c2c(nn1-c1ccc(OC)cc1)CS(=O)C2 (stereo not drawn),-0.6%,15%,-2%,16%[46.1 µM],15%,4%,11%,28%
Cc1ccc2cc(CN(C)S(C)(=O)=O)c(=O)[nH]c2c1,/,3%,/,?,4%,/,-6%,6%
S=C(Nc1ccccc1)N1CCCCC1,6.6%,2%,0%,6%,6%,1%,25%,19%

# Screening data from PubChem BioAssay.
